rRNA inh HTS: inhibitors of bacterial rRNA selective over humanized ribosomes | GFP signal change (wild-type ribosome), % (no concentration beside the values) | AID 720706 | 350,000 tested, 1.6% active | E. coli WT GFP vs humanized-ribosome RFP mutants, fluorescence, 24 h; hits give low values; DMSO median 0, no signal -100;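 active = significant combined selectivity score with lowered wild-type GFP, culture density cut under 30%, mutant RFP and density less affected; inactive = any of these conditions unmet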; note: one replicate is shown; some compounds called inactive have numbers as strong as hits
rRNA inh HTS OD600: further read-out of rRNA inh HTS, marked with its call; OD600 change, %; measured here: OD600 growth;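 optical density of the mix in the first replicate; 0 = DMSO median and -100 = no signal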
rRNA inh HTS RFP: also measured in rRNA inh HTS; calls as there; RFP signal change, %; measured here: RFP humanized mutant strains;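 first replicate; 0 = DMSO median and -100 = no signal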
Active calls of the source: *; & = joins results of further samples. Some of the compounds tested, so the mix of outcomes need not match the whole.

canonical_smiles,rRNA inh HTS,rRNA inh HTS OD600,rRNA inh HTS RFP
COc1cccc(C(=O)Nc2ccc3c(c2)C(=O)N(C)[C@H]2CC[C@@H](CC(=O)NCc4ccc(F)cc4)O[C@@H]2CO3)c1,0,-4,-1.5
COc1ccc(NC(=O)Nc2ccc3c(c2)C(=O)N([C@@H](C)CO)C[C@@H](C)[C@H](CN(C)C)OCCCC[C@@H](C)O3)cc1,-1,-1,-2.5
COc1ccc(NC(=O)N(C)C[C@H]2Oc3c(NS(=O)(=O)c4ccc(F)cc4)cccc3C(=O)N([C@@H](C)CO)C[C@@H]2C)cc1,4,-4,-0.5
Cc1noc(C)c1S(=O)(=O)N(C)C[C@@H]1Oc2ccc(NC(=O)Cc3ccccc3)cc2CC(=O)N([C@@H](C)CO)C[C@@H]1C,0,2,-1.8
C[C@H](O)C#Cc1cnc2c(c1)C(=O)N([C@H](C)CO)C[C@@H](C)[C@H](CN(C)C(=O)Cc1ccncc1)O2,3,12,0.3
O=C(C[C@@H]1CC[C@@H]2NC[C@@H](O)COC[C@H]2O1)NCCc1ccncc1,1,3,-0.4
C[C@@H]1CN([C@H](C)CO)C(=O)c2cc(NC(=O)C3CCCCC3)ccc2O[C@@H](C)CCCCO[C@@H]1CN(C)C(=O)Cc1ccccc1,-4,-13,0.1
Cc1ccccc1S(=O)(=O)N(C)C[C@H]1OCc2cn(nn2)CCCC(=O)N([C@@H](C)CO)C[C@H]1C,0,1,-1.1
Cc1noc(C)c1S(=O)(=O)Nc1ccc2c(c1)C(=O)N([C@H](C)CO)C[C@@H](C)[C@H](CN(C)S(=O)(=O)c1cccs1)OCCCC[C@@H](C)O2,2,-4,3.4
C[C@@H]1CN(C)C(=O)c2cccc(N(C)C)c2O[C@H]1CN(C)S(C)(=O)=O,0,-2,-4.2
Cc1noc(C)c1S(=O)(=O)Nc1ccc2c(c1)C(=O)N([C@@H](C)CO)C[C@@H](C)[C@H](CN(C)Cc1ccc3c(c1)OCO3)O2,3,-1,-2.2
CO[C@H]1CN(C)C(=O)c2ccc(NS(C)(=O)=O)cc2OC[C@@H](C)N(Cc2ccccn2)C[C@@H]1C,-2,4,-1.8
CO[C@H]1CN(C)C(=O)c2cc(NC(=O)NC3CCCCC3)ccc2OC[C@@H](C)N(C(C)=O)C[C@@H]1C,2,-2,0.2
COC(=O)C[C@H]1CC[C@H]2[C@@H](COc3ccc(NC(=O)CN(C)C)cc3C(=O)N2C)O1,6,11,-3.0
COCC#Cc1cnc2c(c1)C(=O)N([C@H](C)CO)C[C@@H](C)[C@@H](CN(C)S(C)(=O)=O)O2,4,8,-0.3
CC(C)NC(=O)N1CC2(C1)[C@@H](c1ccccc1)[C@@H](CO)N2C(=O)C1CCC1,0,-9,-0.8
C/C=C/c1ccc([C@H]2[C@@H](CO)N(C(=O)C3CC3)[C@H]2CN(C)C(=O)C2CC2)cc1,1,3,-0.8
C[C@@H]1ON(C)[C@H]2C[C@H]3c4[nH]c5c(-c6ccc(C(F)(F)F)cc6)cccc5c4CCN3C(=O)[C@@H]12,-4,-7,5.7
C[C@@H]1CN([C@@H](C)CO)C(=O)Cc2cc(NS(=O)(=O)c3ccc(Cl)cc3)ccc2O[C@@H]1CN(C)Cc1ccc(-c2ccccc2)cc1,1,5,4.4
CNC(=O)C[C@@H]1CC[C@H]2[C@@H](COc3ccc(NC(=O)C(C)C)cc3C(=O)N2C)O1,5,5,0.1
O=C(NC[C@H]1N[C@H](CO)[C@@H]1c1ccccc1)C1CCC1,2,-5,-2.7
COc1ccc(NC(=O)Nc2ccc3c(c2)CC(=O)N([C@@H](C)CO)C[C@@H](C)[C@H](CN(C)Cc2ccc(Cl)c(Cl)c2)O3)cc1,1,1,-0.1
C[C@@H]1CC=CC[C@H](c2ccc(F)cc2)NC(=O)[C@@H](Cc2ccccc2)N(C)C(=O)c2ccccc2O1 (mixture of isomers),-6,-8,1.9
CC(C)[C@@H]1C(=O)N[C@@H](c2ccc3c(c2)OCO3)CC=CC[C@@H](C)Oc2ccccc2C(=O)N1C (mixture of isomers),2,10,-4.9

Random excerpt: 2 entries already listed
canonical_smiles,rRNA inh HTS,rRNA inh HTS OD600,rRNA inh HTS RFP
COC(=O)C[C@H]1CC[C@H]2[C@@H](COc3ccc(NC(=O)CN(C)C)cc3C(=O)N2C)O1,6,11,-3.0
CC(C)[C@@H]1C(=O)N[C@@H](c2ccc3c(c2)OCO3)CC=CC[C@@H](C)Oc2ccccc2C(=O)N1C (mixture of isomers),2,10,-4.9

Going on with the list.
canonical_smiles,rRNA inh HTS,rRNA inh HTS OD600,rRNA inh HTS RFP
Cc1noc(C)c1NC(=O)Nc1ccc2c(c1)C(=O)N([C@H](C)CO)C[C@@H](C)[C@@H](CN(C)Cc1ccc(C(=O)O)cc1)OCCCC[C@@H](C)O2,10,17,-2.2
C[C@@H]1CN([C@@H](C)CO)C(=O)c2cc(NC(=O)c3ccccc3)ccc2O[C@@H](C)CCCCO[C@@H]1CN(C)S(=O)(=O)c1cccs1,-2,-3,-0.7
C[C@@H]1CCCCO[C@H](CN(C)C(=O)Cc2ccccc2)[C@H](C)CN([C@@H](C)CO)C(=O)c2cc(N(C)C)ccc2O1,-4,-3,-1.5
C[C@@H]1CN([C@H](C)CO)C(=O)c2cc(NS(=O)(=O)c3cn(C)cn3)ccc2O[C@@H](C)CCCCO[C@@H]1CN(C)Cc1ccc(C(=O)O)cc1,-2,6,-4.6
COCC#Cc1ccc([C@@H]2[C@@H](CO)N3CCCCN(S(=O)(=O)c4ccccc4C)C[C@H]23)cc1,2,-24,-0.6
COc1ccc(S(=O)(=O)Nc2ccc3c(c2)C(=O)N([C@@H](C)CO)C[C@H](C)[C@H](CN(C)C(=O)Nc2cccc4ccccc24)OCCCC[C@H](C)O3)cc1,-2,-1,2.2
CCCN(C)C[C@@H]1Oc2cc(-c3ccccc3C)ccc2S(=O)(=O)N([C@@H](C)CO)C[C@H]1C,-2,-16,-0.5
Cc1cc(C)cc(NC(=O)Nc2ccc3c(c2)C(=O)N(C)[C@@H]2CC[C@H](CC(=O)O)O[C@@H]2CO3)c1,-3,-7,2.7
COc1ccc([C@H]2C/C=C\C[C@@H](c3cccc(Cl)c3)NC(=O)[C@H](c3ccccc3)CC(=O)N2)c(OC)c1,5,-1,2.8
COC(=O)C[C@H]1CC[C@@H]2[C@H](COc3ccc(NC(=O)NCc4ccccc4)cc3C(=O)N2C)O1,3,0,-0.7
C/C=C/c1ccc([C@@H]2[C@H](CO)N(C(=O)Cc3ccncc3)[C@H]2CNC(C)=O)cc1,2,19,0.2
COc1cccc(CN2[C@@H](CO)[C@@H](c3ccccc3)C23CN(Cc2ccccc2OC)C3)c1,-2,-30,10
C[C@H](CO)N1C[C@H](C)[C@@H](CN(C)S(C)(=O)=O)Oc2ncc(C3=CCCCC3)cc2C1=O,3,5,-3.8
CCC(=O)N1[C@H](CN(C)C(C)=O)[C@@H](c2ccc(-c3cccc(F)c3)cc2)[C@@H]1CO,-1,-6,-2.2
CCC(=O)Nc1ccc2c(c1)C(=O)N(C)C[C@@H](OC)[C@H](C)CN(C(=O)C1CCC1)[C@@H](C)CO2,1,-8,1.8
CCS(=O)(=O)N1CC2(CN(Cc3ccc4c(c3)OCO4)[C@@H](CO)c3[nH]c4cc(OC)ccc4c32)C1,-8,-5,1.1
Cc1cc(C(=O)Nc2ccc3c(c2)C(=O)N(C)[C@H]2CC[C@H](CC(=O)O)O[C@@H]2CO3)no1,5,5,-1.3
Cc1ccccc1S(=O)(=O)N1C[C@@H]2C(C(=O)C[C@@H]3C(=O)N(C)C(=O)[C@@H]32)[C@@H]1c1ccc(Cl)cc1 (some centres not stated),-1,-1,3.6
O=C(N[C@H](Cc1ccccc1)C(=O)N1CCCN(Cc2cccs2)CC1)[C@H]1O[C@@H](n2ccc(=O)[nH]c2=O)[C@H](O)[C@@H]1O,25,11,4.2
C[C@@H]1CCCCO[C@@H](CN(C)CC2CCCCC2)[C@@H](C)CN([C@@H](C)CO)C(=O)c2cc(NC(=O)NC3CCCCC3)ccc2O1,-9,-41,35
COCC(=O)Nc1ccc2c(c1)C(=O)N(C)[C@@H]1CC[C@@H](CC(=O)NCc3ccc(OC)cc3)O[C@@H]1CO2,2,1,-0.3
Cc1ccc(S(=O)(=O)Nc2ccc3c(c2)CC(=O)N([C@H](C)CO)C[C@@H](C)[C@H](CN(C)Cc2ccc(C(F)(F)F)cc2)O3)cc1,-3,1,1.8
COc1ccccc1S(=O)(=O)N1C[C@@H]2N[C@H](C1)C2c1ccc(-c2ccccc2C)cc1 (some centres not stated),-60&-46,-77&-64,-19&-2.3
C[C@@H]1CCCCO[C@H](CN(C)C)[C@H](C)CN([C@@H](C)CO)C(=O)c2cc(NC(=O)c3ccncc3)ccc2O1,3,15,-2.2
CCCC(=O)Nc1ccc2c(c1)OC[C@H](C)N(C(=O)c1ccccc1F)C[C@H](C)[C@H](OC)CN(C)C2=O,-1,-2,-3.3
COc1ccc(-c2ccc3c(c2)[C@H]2[C@H](CCN2C(=O)c2ccccc2F)[C@H](CO)N3C)cc1,-4,-33,24
CCCNC(=O)N1[C@@H](CO)[C@@H](c2ccc(-c3ccccc3)cc2)[C@@H]1CNC(C)=O,-6,-4,-0.7
C[C@H]1CN(C(=O)OC(C)(C)C)CCN1c1ccc(N2CCS(=O)(=O)CC2)c(C#N)c1,-2,-5,0.1
C#CCNC(=O)c1cc2cccnc2nc1N,-15,-10,5.8
CC(=O)NC[C@@H]1[C@@H](c2ccc(C3=CCCC3)cc2)[C@H](CO)N1Cc1cccnc1,-1,-3,-0.8
CCCC(=O)Nc1ccc2c(c1)OC[C@H](C)N(CCc1ccccc1)C[C@H](C)[C@@H](OC)CN(C)C2=O,-14,-13,1.5
C[C@@H]1CCCCO[C@@H](CN(C)C(=O)Nc2ccccc2)[C@H](C)CN([C@H](C)CO)C(=O)c2cc(NS(=O)(=O)c3ccc(F)cc3)ccc2O1,-4,-4,3.3
COCC#Cc1ccc2c(c1)O[C@H](CN(C)Cc1ccccn1)[C@H](C)CN([C@@H](C)CO)S2(=O)=O,4,14,0.0
COc1ccccc1NC(=O)Nc1ccc2c(c1)C(=O)N(C)C[C@H](OC)[C@H](C)CN(C)[C@H](C)CO2,1,6,-1.3
C[C@@H]1CCCCO[C@@H](CN(C)Cc2ccc(C(F)(F)F)cc2)[C@@H](C)CN([C@H](C)CO)C(=O)c2cc(NC(=O)C3CCCCC3)ccc2O1,4,21,0.4
C/C=C/c1ccc([C@@H]2[C@H](CO)N(C(=O)NCCC)[C@H]2CNC(=O)C2CCC2)cc1,-8,0,1.2
C[C@H]1CN([C@@H](C)CO)C(=O)c2cc(NS(C)(=O)=O)ccc2O[C@@H]1CN(C)S(=O)(=O)c1ccc(Cl)cc1,2,1,0.8
CO[C@H]1CN(C)C(=O)c2ccc(NC(C)=O)cc2OC[C@@H](C)N(Cc2cccc(F)c2)C[C@@H]1C,-4,4,-1.1
COCC(=O)N(C)C[C@@H]1Oc2cc(C#CC3CCCC3)ccc2S(=O)(=O)N([C@@H](C)CO)C[C@H]1C,-5,-21,-1.4
C[C@H](CO)N1C[C@H](C)[C@@H](CN(C)C(=O)Nc2ccc(F)cc2)Oc2ccc(NS(=O)(=O)c3cn(C)cn3)cc2C1=O,5,9,-1.9
COCC#Cc1cnc2c(c1)C(=O)N([C@H](C)CO)C[C@@H](C)[C@H](CN(C)Cc1ccc(-c3ccccc3)cc1)O2,2,9,15
C[C@@H]1CN([C@H](C)CO)C(=O)Cc2cc(NC(=O)Cc3ccccc3)ccc2O[C@@H]1CN(C)S(=O)(=O)c1cn(C)cn1,-3,-3,-0.2
COC(=O)C1=C(C)N(C)C(=NCc2ccccc2C(F)(F)F)NC1c1ccc(C(F)(F)F)cc1 (configuration not stated),-42,-80,-15
C[C@@H]1CCCCO[C@@H](CN(C)C(=O)c2ccncc2)[C@@H](C)CN([C@@H](C)CO)C(=O)c2cc(NC(=O)c3ccccc3)ccc2O1,8,9,0.5
CC(=O)Nc1ccc2c(c1)CC(=O)N(C)C[C@H](C)[C@H](CN(C)C(=O)NC(C)C)O2,1,2,-1.6
COCC(=O)Nc1ccc2c(c1)[C@H]1C[C@@H](CC(=O)N3CCN(C)CC3)O[C@@H](CO)[C@H]1O2,2,-3,-0.3
CCCC(=O)N1CC2(CN(C(C)=O)C2)c2c(n(C)c3cc(OC)ccc23)[C@@H]1CO,5,-5,-3.6
C[C@@H]1CCCCO[C@H](CN(C)C)[C@H](C)CN([C@H](C)CO)C(=O)c2cc(NC(=O)CCCN(C)C)ccc2O1,2,5,-3.3
C[C@H](O)[C@@H]1C(=O)N2CCc3c([nH]c4cccc(-c5ccccc5)c34)[C@@H]2C[C@@H]1N(C)CC1CCCCC1,-1,-1,2.4
Cc1cccc(CN(C)C[C@@H]2Oc3ncc(C#CCN(C)C)cc3C(=O)N([C@H](C)CO)C[C@@H]2C)c1,3,9,-4.5

Reformatted with each value named: 3 of the compounds above
Molecule: C[C@H](CO)N1C[C@H](C)[C@@H](CN(C)S(C)(=O)=O)Oc2ncc(C3=CCCCC3)cc2C1=O
  rRNA inh HTS: 3	rRNA inh HTS OD600: 5	rRNA inh HTS RFP: -3.8
Molecule: CCCNC(=O)N1[C@@H](CO)[C@@H](c2ccc(-c3ccccc3)cc2)[C@@H]1CNC(C)=O
  rRNA inh HTS: -6	rRNA inh HTS OD600: -4	rRNA inh HTS RFP: -0.7
Molecule: CCCC(=O)Nc1ccc2c(c1)OC[C@H](C)N(C(=O)c1ccccc1F)C[C@H](C)[C@H](OC)CN(C)C2=O
  rRNA inh HTS: -1	rRNA inh HTS OD600: -2	rRNA inh HTS RFP: -3.3

Compound activity: PubChem BioAssay, Broad Institute
